PABP FP inh: PABP-poly(A) binding inhibition | P11940 | PABP-poly(A) RNA binding, fluorescence polarization | inhibition, % at 35 µM | 290,000 compounds, 1% hits;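 active = 50% or more with normal probe brightness, or confirmed in later tests; inconclusive = above 50% with abnormal brightness, or retests that disagree; inactive = below 50% or failed in later tests; about a fifth of its hits are not listed in these tables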;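 also: calls also rest on retests at 20 µM and on dose response follow-up; controls were probe without protein and protein plus probe with vehicle; some compounds called inactive have numbers as strong as hits; many hits fall short of the cut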
Target sequence (P11940 whole entry, looked up): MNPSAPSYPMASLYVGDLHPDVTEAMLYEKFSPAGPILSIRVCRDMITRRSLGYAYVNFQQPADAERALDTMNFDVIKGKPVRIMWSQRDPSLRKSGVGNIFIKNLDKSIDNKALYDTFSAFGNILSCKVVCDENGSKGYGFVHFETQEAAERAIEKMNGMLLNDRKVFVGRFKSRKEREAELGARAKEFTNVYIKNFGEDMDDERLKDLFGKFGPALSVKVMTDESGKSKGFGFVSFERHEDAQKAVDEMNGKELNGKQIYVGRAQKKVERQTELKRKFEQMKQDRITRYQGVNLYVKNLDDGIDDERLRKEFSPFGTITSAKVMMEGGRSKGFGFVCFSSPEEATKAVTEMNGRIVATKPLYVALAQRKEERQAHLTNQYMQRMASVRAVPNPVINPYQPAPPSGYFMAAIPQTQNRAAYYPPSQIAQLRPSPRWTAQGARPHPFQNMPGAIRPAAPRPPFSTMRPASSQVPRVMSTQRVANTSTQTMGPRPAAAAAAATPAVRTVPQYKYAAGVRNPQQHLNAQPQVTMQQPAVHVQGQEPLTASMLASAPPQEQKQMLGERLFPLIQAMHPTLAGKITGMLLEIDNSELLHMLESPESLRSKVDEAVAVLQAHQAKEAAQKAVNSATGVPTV
CSC inhib: cancer stem cell inhibition | cancer stem cell-like cells viability, luminescence | inhibition, % at 7.5 µM | 300,000 compounds, 1.1% hits | AID 2717;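 active = mean at 75% or more and at least half the replicates too; inconclusive = mean and replicates disagree; tested in HMLE shEcad cells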;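 also: 0% = median of negative and 100% = median of positive control wells; the first replicate is given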
Rce1 inhib: inhibitors of yeast Ras-converting enzyme; calls only; yeast membranes, quenched prenylated peptide cleavage fluorescence; AID 2563; Q03530; 290,000 compounds, 0.27% hits;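 active = fall in fluorescence gain of 50% or more versus controls, with final raw signal at or below 3038400; inconclusive = same 50% fall but final raw signal above 3038400; inactive = fall in fluorescence gain under 50%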;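 also: plate controls were neutral control wells for no effect and wells lacking membranes for full effect; tested at 10 µM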
Target sequence (Q03530 whole entry, looked up): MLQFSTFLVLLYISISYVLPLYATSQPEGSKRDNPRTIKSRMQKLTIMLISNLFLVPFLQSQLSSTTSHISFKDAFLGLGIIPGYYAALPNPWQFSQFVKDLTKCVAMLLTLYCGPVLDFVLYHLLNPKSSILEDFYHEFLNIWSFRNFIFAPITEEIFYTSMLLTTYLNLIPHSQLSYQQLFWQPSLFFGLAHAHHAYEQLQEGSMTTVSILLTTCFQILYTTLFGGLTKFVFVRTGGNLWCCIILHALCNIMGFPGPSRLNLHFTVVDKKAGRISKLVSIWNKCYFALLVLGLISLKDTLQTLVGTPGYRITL
eIF4H FP inh: inhibitors of RNA binding by human eIF4H; eIF4H fluorescence polarization binding assay; inhibition, % at 35 µM; Q15056; 290,000 compounds, 0.94% hits; AID 2012;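 active = 50% or more with normal probe brightness, or confirmed in later tests; inconclusive = above 50% with abnormal brightness, or retests that disagree; inactive = below 50% or failed in later tests; about a fifth of its hits are not listed in these tables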;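 also: calls also rest on retests at 20 µM and on dose response follow-up; 0% = protein and probe with vehicle and 100% = probe without protein; strong numbers were not always called active; many hits fall short of the cut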
Env fusion inh: blocks HIV Env-driven cell-cell fusion; inhibition, % at 12.3 µM; HeLa-JRFL Env/CEM21 cell fusion, luciferase; 360,000 compounds, 1.1% hits;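 active = mean replicate inhibition score of at least 50 and every replicate individually at or above 50; inconclusive = only one of the two criteria met; inactive = mean below 50 and not all replicates reaching 50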;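 also: 0% = plate neutral controls and 100% = maraviroc near 300 nM; one replicate is shown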
MT1-MMP act inh: MT1-MMP (human) activation inhibition; P50281; HT1080 RFP-PRO-GFP cells, GFP/RFP ratio fluorescence, overnight; percent of plate control window, DMSO zero; GFP/RFP ratio change, % at 20 µM; 360,000 compounds, 0.061% hits; AID 651647;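 active = GFP/RFP ratio change of at least 30% with cell ATP level not reduced by more than half and red fluorescence within 50% of control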; also: strong numbers were not always called active
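Assay system: HT1080 RFP-PRO-GFP cells | Dosing: 20 µM single dose, 1% DMSO | Incubation: Cells overnight before dosing, compound overnight, 37 °C, 5% CO2 | Evaluation: GFP/RFP fluorescence ratio | Control set: DMSO-only wells and HT1080 RFP-L50D-GFP cell wells as references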
UUG fidelity: yeast start codon fidelity modulation | AID 602363 | 350,000 compounds, 0.13% hits | S. cerevisiae UUG-firefly luciferase reporter, luminescence/redox ratio | activity score, % at 18.7 µM;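 active = replicate mean at a twofold rise or more, about +100% in these data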;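 also: firefly luciferase made from a UUG start codon reports start codon fidelity; reporter light over untreated wells divided by growth signal over untreated wells; some hits fall short of that in this replicate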
MT1-MMP act inh RFP: recorded beside MT1-MMP act inh, whose call it bears; RFP signal change, %; measured here: RFP expression control read;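 0 = vehicle wells; hits needed this value within 50% of zero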
* hit, by the source's call; i = inactive; ? = inconclusive; nt = no result given.

SMILES	PABP FP inh	CSC inhib	Rce1 inhib	eIF4H FP inh	Env fusion inh	MT1-MMP act inh	MT1-MMP act inh RFP	UUG fidelity
Cn1c(=O)c2c(nc(N3CCN(c4ccc([N+](=O)[O-])cc4)CC3)n2C)n(C)c1=O	-10	-9	i	-3	8	1	-7	-8
O=[N+]([O-])c1ccc(N2CCN(S(=O)(=O)c3ccccc3)CC2)cc1N1CCc2ccccc2C1	-14	-1	i	-19	21	7	5	nt
CCCC1CC(C(=O)NC(C(C)Cl)C2OC(SC)C(O)C(O)C2O)N(C)C1 (stereo not given)	2	-9	i	-8	42	-3	-5	-21
O=C(Cc1ccc([N+](=O)[O-])cc1)Nc1ccc2c(c1)C(=O)NC2=O	-9	8	i	-3	7	1	4	nt
COc1cc(CNS(=O)(=O)c2ccc3c(c2)CC(C)N3C(C)=O)cc(OC)c1OC (stereo not given)	0	16	i	-12	25	2	-7	-5
O=C(O)c1n[nH]c2c1CCCCC2	0	-15	i	-1	-99	8	-4	-14
Nc1nc2n(n1)C(c1cccc(Br)c1)CC(c1ccccc1)N2 (stereo not given)	-6	-4	i	-5	3	2	1	-20
CS(=O)(=O)c1ccc(C(=O)OCC(=O)Nc2cccc(S(=O)(=O)N3CCCC3)c2)cc1	nt	-15	i	nt	-3	4	-1	nt
O=C(OCC1CC(c2ccccc2)=NO1)c1ccc(Cl)cc1 (stereo not given)	2	-7	i	-13	nt	6	4	-23
CCOC(=O)N1CCC(N2C(=O)c3ccc(C(=O)O)cc3C2=O)CC1	2	2	i	1	-16	-3	-1	-7
COc1cccc(-c2nc(CN3CCN(C(=O)c4ccco4)CC3)c(C)o2)c1OC	nt	nt	nt	nt	18	3	4	-3
CCN(CC(=O)Nc1ccccc1OC)C(=O)C1CCCC1	nt	-3	nt	nt	3	-4	-2	-20
CCCCNS(=O)(=O)c1cc(-c2nn(C)c(=O)c3ccccc23)ccc1C	6	13	i	11	5	0	-6	-10
CN1CCN(c2cc(N3CCN(C(=O)c4ccco4)CC3)c3c4c(onc24)-c2ccccc2C3=O)CC1	86*	14	i	93*	nt	-3	3	-5
COc1ccc(-n2ncc3c(N4CCN(c5cccc(C)c5C)CC4)ncnc32)cc1	-4	-5	i	-11	-3	1	-1	-19
CCc1nc(N=C(N)N)nc2ccccc12	-10	6	i	-5	7	nt	nt	nt
CCOc1cc(/C=N/NC(=O)CCc2n[nH]c(=O)[nH]c2=O)ccc1O	0	-5	i	-2	8	2	8	-12
COc1ccc(OCC(O)CNC(=O)Nc2ccc(Cl)cc2)cc1 (stereo not given)	15	1	i	3	-7	-2	-3	nt
COc1cc(OC)c(C(=O)c2ccccc2[N+](=O)[O-])c(OC)c1	nt	nt	nt	nt	3	1	3	-11
CC1CCN(Cc2c(C#N)c3ccccc3n2C)CC1	10	-4	i	1	5	-2	-1	-6
O=C(c1cc([N+](=O)[O-])ccc1N1CCN(S(=O)(=O)c2ccc(Cl)c(Cl)c2)CC1)N1CCOCC1	4	-2	i	-4	-21	0	-5	3
COc1ccccc1N1CCN(S(=O)(=O)c2c(C)ccc3nsnc23)CC1	0	3	i	10	9	1	0	nt
COC(=O)C1=CN(c2ccc(OC)cc2)C=C(C(=O)OC)C1c1cc(OC)c(OC)cc1OC	-3	-17	i	-2	-4	-3	-7	-9
Cc1cccc(OC(C)c2ccnc3nc(/N=C/N(C)C)nn23)c1 (stereo not given)	3	8	i	-7	-3	1	1	-10
COC(=O)c1ccc(OCC(O)CN2CCN(C(=O)c3ccco3)CC2)cc1 (stereo not given)	14	-2	i	-1	-86	2	1	5

Other structures follow:
SMILES	PABP FP inh	CSC inhib	Rce1 inhib	eIF4H FP inh	Env fusion inh	MT1-MMP act inh	MT1-MMP act inh RFP	UUG fidelity
COc1ccc(C2C(C#N)=C(N)Oc3c2c(-c2ccccc2)nn3-c2ccccc2)c(OC)c1OC (stereo not given)	10	24	i	13	-91	4	-11	-17
O=C(COC(=O)C1CC1)NCc1ccccc1	nt	nt	nt	nt	7	-3	-1	-19
O=C(CSc1nc(=O)n(CCCN2CCOCC2)c2c1CCC2)Nc1ccc([N+](=O)[O-])cc1	nt	-5	i	nt	-19	3	1	-13
CNC(=S)N(CCCn1ccnc1)Cc1c(F)cccc1Cl	13	-1	i	-9	24	0	3	-22
COC(=O)[C@@H](Cc1ccccc1)NC(=O)Cn1cnc2c(SC)nc(N)nc21	nt	nt	nt	nt	-71	1	1	4
Cc1ccc(Cl)c(NC(=S)N(CCCN2CCOCC2)Cc2ccco2)c1	4	0	i	6	nt	5	0	-21
CC(CNCCCn1ccc(NC(=O)OCc2ccccc2)nc1=O)c1ccccc1 (stereo not given)	nt	nt	nt	nt	-10	3	3	-1
COc1ccc(Cl)cc1NC(=O)CN(C)C(=O)c1ccc(-n2nc(C)cc2C)cc1	nt	nt	nt	nt	-1	5	-10	7
CC(C)n1nnnc1SCC(=O)NC1CCCC1	6	nt	i	2	12	0	9	-13
COc1cc2c(cc1OC)/C(=C/C(=O)c1cccc([N+](=O)[O-])c1)NCC2	6	2	i	-11	2	0	-6	-8
CN(C)c1ccc(C(CNC(=O)c2ccccc2F)c2c[nH]c3ccccc23)cc1 (stereo not given)	-10	-16	i	-5	23	-4	-2	nt
FC(F)(F)c1ccc(-n2cn[nH]c2=S)cc1	-5	0	i	1	3	3	1	-21
CCOC(=O)C1CCCN(C(=O)Cc2ccc(OC)c(OC)c2)C1 (stereo not given)	0	-13	i	-2	-19	-3	1	-13
COc1ccccc1N1CCN(C(=O)c2cc(C(=O)N3CCN(c4ccccc4OC)CC3)cc([N+](=O)[O-])c2)CC1	0	-12	i	-4	-105	1	0	4
O=C(c1ccc2c(Cl)c3c(nc2c1)CCCC3)N1CCC(N2CCCCC2)CC1	-1	27	i	5	?	6	3	-6
O=C(O)CCSc1ccc([N+](=O)[O-])cc1[N+](=O)[O-]	4	-7	i	-2	-14	2	-1	nt
CC1=C(C(=O)N2CCOCC2)CC(CC(=O)NCc2cccs2)C(=O)N1Cc1ccc(C(C)(C)C)cc1 (stereo not given)	nt	nt	nt	nt	-4	0	2	8
CC1CC(=O)C2=C(C1)Nc1ccccc1SC2c1ccc(F)cc1 (stereo not given)	-3	-6	nt	-12	-18	-2	-5	-11
Cc1ccc2c(c1)N(CC(=O)NCc1cccs1)C(=O)C(C)O2 (stereo not given)	-8	nt	i	-8	-33	-4	-1	-17
Cc1cccc(-c2cc(=O)c(C(=O)O)cn2-c2ccc(F)cc2F)c1	7	1	i	-3	7	3	-4	-8
O=C(O)CN1C(=O)/C(=C\c2cccc(OCc3ccc(Cl)cc3Cl)c2)SC1=S	24	42	i	44	-20	2	2	-14
Nc1ccn(CC(=O)NCCc2ccccn2)c(=O)n1	nt	13	nt	nt	-14	3	7	-13
CC(=O)Nc1nc2c(C)c(Cl)ccc2s1	6	-3	i	7	13	-3	-5	-20
CCOc1ccccc1C(=O)NCC(=O)N(C)CC(=O)Nc1ccc(N2CCOCC2)cc1	nt	nt	nt	nt	-27	1	5	3
CC(C)Oc1ccc(Oc2ccc(C(F)(F)F)cn2)cc1	-3	13	i	-14	nt	-5	-1	-18

Sorted by heavy-atom count (smallest number first): 3 of the compounds above.
SMILES	PABP FP inh	CSC inhib	Rce1 inhib	eIF4H FP inh	Env fusion inh	MT1-MMP act inh	MT1-MMP act inh RFP	UUG fidelity
CC(=O)Nc1nc2c(C)c(Cl)ccc2s1	6	-3	i	7	13	-3	-5	-20
Cc1ccc2c(c1)N(CC(=O)NCc1cccs1)C(=O)C(C)O2 (stereo not given)	-8	nt	i	-8	-33	-4	-1	-17
O=C(c1ccc2c(Cl)c3c(nc2c1)CCCC3)N1CCC(N2CCCCC2)CC1	-1	27	i	5	?	6	3	-6

Additional records follow.
SMILES	PABP FP inh	CSC inhib	Rce1 inhib	eIF4H FP inh	Env fusion inh	MT1-MMP act inh	MT1-MMP act inh RFP	UUG fidelity
CCOC(=O)c1c(NC(=O)c2cccs2)sc2c1CC(C)(C)OC2	-7	5	i	-6	nt	8	-3	-9
COc1cccc(CNC(=O)c2cc3oc4ccccc4c3n2C)c1OC	2	37	i	4	nt	9	14	-14
Cc1cccc2nc(Cn3c(=O)n(CCCC(=O)NCc4ccco4)c(=O)c4ccccc43)cc(=O)n12	14	-12	i	8	-5	3	2	-19
O=C(OCn1nnc2ccccc2c1=O)c1cn(-c2ccccc2)nc1-c1cccnc1	-10	2	i	-2	nt	-1	-3	17
CC(C)(C)c1ccc(CC(=O)N2CCC2(C)C(=O)NS(=O)(=O)c2cccc(OC(F)F)c2)cc1 (stereo not given)	nt	nt	nt	nt	-3	0	5	12
CC1CC(C)CN(C(=O)Cn2c(=O)oc3cc(S(=O)(=O)N4CCCC4)ccc32)C1 (stereo not given)	-3	-5	i	-4	6	-3	-2	-4
CCn1c(SCC(=O)c2ccc3ccccc3c2)nnc1-c1ccco1	5	0	i	14	-41	-2	3	-10
COc1ccc(NC(=O)c2oc3ccccc3c2CSC)cn1	12	nt	i	-9	-24	-1	-2	-15
O=C(Cc1ccc(-n2c(=O)c3ccccc3n(Cc3ccccc3Cl)c2=O)cc1)NCC1CCCO1 (stereo not given)	-2	-11	i	28	-10	5	1	nt
CCOc1ccc(NC(=O)C2(c3ccc(OC)c(OC)c3)CCCC2)cc1	12	-11	i	0	0	-10	-4	15
COc1ccc(CNC(=O)CC[C@H]2O[C@@H](n3cnc4c(NC(=O)c5ccccc5)ncnc43)[C@H](O)[C@@H]2O)cc1	nt	nt	nt	nt	23	2	2	3
O=C(c1ccc(N2CCOCC2)cc1)N1CCCC(Nc2ccccc2)C1 (stereo not given)	-1	-1	i	-8	-2	0	-1	-1
O=C(O)c1ccc(CN2C[C@@H](CO)O[C@@H](n3cnc4c(N5CCOCC5)ncnc43)C2)cc1	nt	nt	nt	nt	-25	8	4	-6
OC(CNCC1CCCCC1)COc1ccccc1 (stereo not given)	3	10	nt	-3	14	0	2	0
O=C1N[C@@H](Cc2ccccc2)C(=O)N2[C@@H]3N(S(=O)(=O)c4ccc(F)cc4)c4ccccc4[C@]3(Br)C[C@@H]12	nt	-10	i	nt	?	2	-2	-8
COCCNc1nnc(SCC(=O)Nc2cc(C)on2)s1	nt	nt	nt	nt	11	0	2	2
Cc1cc(S(=O)(=O)N2CCCC2)ccc1OCC(=O)Nc1ccccc1	2	-9	i	-8	4	7	3	-17
CCN(CC(=O)Nc1ccccc1-c1ccccc1)Cc1nc2ccccc2c(=O)[nH]1	-11	36	i	5	-38	-14	-15	-9
Cc1cc(-c2nnc3n2N=C(c2ccccc2Br)CS3)n[nH]1	9	2	i	-11	11	2	2	nt
COc1cccc(CNC(=O)COC(=O)c2c(NC(C)=O)sc(C)c2C)c1	nt	8	nt	nt	nt	2	-3	-14
C=CCNc1nc(NCc2ccco2)nc(OCC)n1	-2	0	i	2	nt	-1	1	-13
COc1ccc(N2CCN(Cc3cc(=O)oc4cc5c(cc34)CCCC5)CC2)cc1	3	-9	i	2	nt	-20	-3	-17
CC1CCc2sc(C(=O)NN=C3CCC(c4ccccc4)CC3)cc2C1 (stereo not given)	5	-2	i	-9	-4	-3	5	nt
CCOC(=O)N1CCN(C(=O)c2cc(S(=O)(=O)N3CCc4ccccc43)ccc2OC)CC1	nt	-17	i	nt	12	0	-5	nt
CC(NC(=O)/C(=C/c1ccc(OC(F)F)cc1)c1ccccc1)c1ccccc1 (stereo not given)	-8	17	i	-9	nt	-3	-12	nt
